Calb biofilm kill – mixtures killing C. albicans biofilm | C. albicans biofilm persisters + clotrimazole, fluorescence viability; primary screen in compound mixtures of four per well | 120,000 tested, 0.02% active | inhibition, % at 7.6 µM | AID 1242;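 active = inhibition above 30.3% in the primary screen of four-compound pools, then above 30% when the compound was retested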;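 also: compounds exposed to preformed 24 h biofilms for 48 h; the number belongs to the whole pool; some results filed as inactive read as strong as hits; inactives centre near 12; 0% = biofilm with clotrimazole alone and 100% = kill control; retested singly at about 60 µM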
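Assay system: C. albicans biofilms / Medium: RPMI/MOPS medium, pH 7.0 / Schedule: biofilm formation 24 h, compound exposure 48 h, 37 °C / Measured by: Alamar Blue fluorescence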
* marks the source's active call; other numbers are inactive results; & = joins results of further samples.

entry	molecule	Calb biofilm kill
1	Cc1csc(SCC(=O)N(C)CC(=O)Nc2ccc(F)cc2)n1	19
2	COc1cc2c(cc1OC)C(C)N(C(=O)c1ccc(Br)o1)CC2 (stereo unspecified)	14
3	Cc1cccc2sc(NNC(=O)c3cc(-c4cccs4)nc4ccccc34)nc12	-3
4	Nc1n[nH]c(N)c1N=Nc1ccc(Cl)cc1Cl	13
5	Cn1c(=O)c2c(SCC(=O)NCCc3ccccc3)nc(C3CC3)nc2n(C)c1=O	16
6	Cc1ccc(-n2c(CC#N)n[nH]c2=S)c(C)c1	3
7	C=CCN(C(=O)CNC(=O)c1ccco1)C(C(=O)NC1CCCC1)c1cccs1 (stereo unspecified)	12
8	N#Cc1c(Nc2ccccc2)c(/C=N/N=C/c2ccccc2)c[nH]c1=O	12
9	N=c1sccn1CC(=O)Nc1cc(S(=O)(=O)N2CCCCC2)ccc1Cl	5
10	COc1ccc(CN(C)C(C)C(=O)Nc2ccc([N+](=O)[O-])cc2Cl)cc1OC (stereo unspecified)	15
11	CCOC(=O)c1nc(C)sc1-c1ccnn1S(=O)(=O)c1ccccc1C(F)(F)F	8
12	CCC(=O)NC(=S)Nc1ccc(NC(=O)c2ccc(Br)o2)cc1	13
13	C#Cc1ccc([C@H]2C=C(C(=O)NCc3ccccc3)O[C@@H](OCC)[C@@H]2CCCO)cc1	10
14	NNc1ccc(Cc2ccc(Cl)cc2Cl)nn1	5
15	COc1ccc(-c2cc(=O)n(-c3ccc([N+](=O)[O-])cc3)[nH]2)cc1	16
16	Nc1c(Cl)ncnc1NCCc1ccc(O)cc1	16
17	COc1cc(/C=C(\C#N)c2nc3ccccc3[nH]2)cc(Br)c1OCc1ccccc1	12
18	N#CC(Cc1ccccc1OC(F)F)c1nc2ccccc2[nH]1 (stereo unspecified)	13
19	COc1ccc([N+](=O)[O-])cc1NC(=O)C(C)Sc1ccccc1 (stereo unspecified)	16
20	O=C(c1ccccc1)c1ccc2c(c1)OCCOCCOCCOCCO2	19

entry	molecule	Calb biofilm kill
21	CCOC(=O)c1ncn2c1CN(C)C(=O)c1cc(F)ccc1-2	6
22	Cc1ccc2nc(SCC(=O)Nc3ccc(C)c([N+](=O)[O-])c3)[nH]c2c1	14
23	Cc1nonc1OCCn1c([N+](=O)[O-])cnc1C	14
24	COc1ccc(S(=O)(=O)Nc2ccc(NC(C)=O)cc2)cc1[N+](=O)[O-]	14
25	Cc1nc(SCc2ccc(C(=O)O)cc2)c2c(C)c(C)sc2n1	23
26	Cc1cc(OCCN2CCOCC2)ccc1[N+](=O)[O-]	16
27	COc1ccc(CN2CCN(CCc3ccccc3)C(CCO)C2)cc1Cn1cncn1 (stereo unspecified)	27
28	Cc1cccc(Cc2c(C)[nH]c(=O)c(C#N)c2C)c1	9
29	Cc1ccc(NC(=O)C(=O)NCCN2CCN(S(C)(=O)=O)CC2)cc1C	7
30	COc1cc(/C=c2\s/c(=C\C(=O)C(C)(C)C)[nH]c2=O)cc(OC)c1OC	3
31	COCCNC(=O)/C(C#N)=C/c1ccc(OCC(=O)NC2CCCCC2)cc1	17
32	Cc1ccc2[nH]c(O)c(N=O)c2c1	25
33	COc1ccccc1NC(=O)Cn1c2ccccc2c2nc3n(c(=O)c21)CCS3	-4
34	CC(=O)c1ccc(NC(=O)C2CCCN(C(=O)c3ccc(Cl)cc3)C2)cc1 (stereo unspecified)	4
35	Cc1ccc(NC(=O)c2ccc([N+](=O)[O-])o2)cc1C	11
36	CCOC(=O)Cn1c(=O)oc2cc(S(=O)(=O)N(C)c3ccc(OC)cc3)ccc21	13
37	CC(/C=C/c1ccccc1)=N/NC(=O)CNC(=O)c1ccccc1F	19
38	CCOCCCn1c(SCC(=O)Nc2cccc(S(=O)(=O)NC3=NCCCCC3)c2)nc2ccccc2c1=O	29
39	O=c1c(-c2ccc(O)cc2O)coc2cc(O)cc(O)c12	19
40	CCNC(=O)NC(=O)COC(=O)CCCSc1nc2ccccc2s1	10

Next section, starting with the last 2 of the part before.
entry	molecule	Calb biofilm kill
39	O=c1c(-c2ccc(O)cc2O)coc2cc(O)cc(O)c12	19
40	CCNC(=O)NC(=O)COC(=O)CCCSc1nc2ccccc2s1	10
41	C=CCOC(=O)C1=C[C@H](c2cn(C(C)=O)c3ccccc23)C[C@H](OCCCCO)O1	14
42	CCN(CC)c1ccc(/C=N/NC(=O)c2cccc(S(=O)(=O)N3CCOCC3)c2)c(O)c1	-8
43	CN1C=CC=C/C1=C1/SC(=S)N(Cc2ccccc2)C1=O	12
44	c1ccc(Nc2c3c(nc4ccccc24)CCC3)cc1	12
45	O=C(Nc1ccncc1)c1ccc(C(=O)Nc2ccncc2)cc1	16
46	CC1=C(C(=O)N2CCOCC2)C(c2cc(C)ccc2C)NC(=S)N1 (stereo unspecified)	10
47	C=CCCCN(Cc1ccccc1)S(=O)(=O)c1ccccc1Br	52
48	N/C(=N\NC(=O)c1cccs1)c1cc2cc(Cl)ccc2oc1=O	19
49	COc1ccc(-c2cc(C(=O)Nc3c(C)n(C)n(-c4ccccc4)c3=O)no2)cc1	19
50	Nc1nnc(CCOc2ccc(Cl)cc2)s1	6
51	O=C(CSc1nnc(NC(=O)C2CC2)s1)NCc1ccco1	1
52	Cc1ccc2c(c1)C(=O)C(=O)N2CC(=O)Nc1ccccc1NC(=O)c1ccccn1	21
53	CC1Cc2ccccc2N1C(=O)CSc1nc2ccccc2s1 (stereo unspecified)	9
54	CCn1c2ccccc2c2cc(NC(=O)COC(=O)c3ccccc3F)ccc21	12
55	CCOc1ccc(OCCN2CCCCC2)cc1	15
56	COc1cc(O)c(C(CCN2CCCC(C)C2)c2ccc3c(c2)OCO3)c(OC)c1 (stereo unspecified)	6
57	CCn1c(=S)[nH]c2cc(C(=O)O)ccc21	9
58	CC(C)CNc1nc(Oc2ccc(=O)[nH]n2)nc(N2CCOCC2)n1	13
59	COC(=O)Cn1cc([N+](=O)[O-])nc1C	23
60	O=C(CCc1nnc(Cc2ccc3c(c2)OCO3)o1)NC(c1ccccn1)C(F)(F)F (stereo unspecified)	4

entry	molecule	Calb biofilm kill
61	Cc1cc(C)nc(SCc2cn3ccccc3n2)n1	26
62	Cc1ccc(C(=O)N/N=C/C=C/c2ccccc2)cc1	-6
63	CC(C)c1ccc(-n2nc3ccc(N)cc3n2)cc1	22
64	COC(=O)c1sccc1NC(=O)CC1C(=O)NCCN1C(=O)Nc1ccc(F)cc1F (stereo unspecified)	15
65	CCCOC(=O)COC(=O)c1ccccc1NC(=O)c1ccccc1	7
66	CCOc1ccc(N2CC(C(=O)Nc3ccccn3)CC2=O)cc1 (stereo unspecified)	8
67	O=C(Nc1ccc(C(F)(F)F)cc1)c1ccccc1Br	10
68	C/C(=N\N=C\c1cccc(F)c1)c1nnn(-c2nonc2N)c1C	13
69	Cc1ccc(/C=C/C(=O)N2CCN(S(=O)(=O)c3ccc(C)c(C)c3)CC2)o1	6
70	COc1ccc(NS(=O)(=O)c2cc(NC(=O)C3CC3)ccc2N2CCCCC2)cc1	18
71	COc1ccc(NC(=O)/C=C2\SC(=O)NC2=O)cc1	-2
72	CC(C)CNC(=S)Nc1ccccc1F	9
73	O=C(CC1CS(=O)(=O)CC1CC(=O)Oc1ccccc1F)Oc1ccccc1F (stereo unspecified)	18
74	O=c1c2cc(Cl)ccc2[nH]c(=S)n1Cc1ccccn1	7
75	CN(C)S(=O)(=O)c1ccc(-c2csc(-c3cccnc3)n2)cc1	9
76	COc1ccc(-c2cc(C(F)(F)F)c(C#N)c(SCC(=O)O)n2)cc1OC	26
77	COC(=O)c1cccc(C23CC4(C2)[C@H](CN(Cc2cccnc2)[C@@H]4c2ccccc2)C3c2ccc(Cl)nc2)c1 (stereo partly specified)	13
78	CC(=NCCc1ccccc1)C1=C(O)C(c2ccccc2)OC1=O (stereo unspecified)	15
79	CN(CCC#N)C(=O)COC(=O)/C=C/c1cccs1	17
80	O=c1[nH]ncc2c3ccccc3n(Cc3cccc(Cl)c3)c12	14

entry	molecule	Calb biofilm kill
81	O=C1c2cccc3c(O)ccc(c23)C(=O)N1Cc1ccco1	20
82	CCOCC(=O)N1CCC(Cc2ccccc2)CC1	21
83	O=C(CN1C(=O)NC2(CCCCC2)C1=O)N1CCc2ccccc2C1	12
84	CCOC(=O)c1ccc(NC(=S)NC2CCCC2)cc1	11
85	C(=C\c1ccccc1)/CSc1ccccn1	22
86	Cc1ccc(-c2nc3cccnc3s2)cc1NS(C)(=O)=O	18
87	O=C1C=C(c2ccccc2)CC(/C=C/c2ccccc2)C1 (stereo unspecified)	8
88	CC(C)(C)c1ccc(-c2nc(-c3ccncc3)no2)cc1	1
89	COc1ccc(/C=C(\C#N)C(=O)OCCNC(=O)c2ccncc2)cc1	11
90	O=C(CN1CCN(C/C=C/c2ccccc2)CC1)Nc1ccc(F)cc1F	-1
91	Cc1nnc2ccc(-c3cccc(NC(=O)c4ccc(Br)o4)c3)nn12	8
92	C[C@@H](CO)NC(=O)c1ccc2c3n(nc2c1)-c1ccccc1CO3	20
93	NS(=O)(=O)c1cccc(NC(=O)COC(=O)Cn2cnc3ccccc32)c1	14
94	Cc1ccc(NC(=O)CN(C)CC(=O)NC2CCCc3ccccc32)cc1 (stereo unspecified)	17
95	COC(=O)c1ccc(CN2C(=O)C3CCCCC3C2=O)o1 (stereo unspecified)	20
96	O=C(COc1ccccc1C(=O)O)Nc1ccc(SC(F)F)cc1	6
97	COc1ccc(-c2nn(-c3ccccc3)cc2C(=O)OCC(=O)c2ccc(C)c([N+](=O)[O-])c2)cc1	20
98	CCCCNC(=O)C1CC(c2cccc(F)c2)=NO1 (stereo unspecified)	11
99	O=S(=O)(c1ccc(Cl)c(S(=O)(=O)N2CCCC2)c1)N1CCCC1	9
100	COc1cccc2cc(S(=O)(=O)c3ccc(C)cc3)/c(=N/NS(=O)(=O)c3ccc(C)cc3)oc12	2

entry	molecule	Calb biofilm kill
101	CCCCC(=O)Nc1ccc(C(=O)NNC(=O)c2cccs2)cc1	16
102	Cc1ccccc1NC(=O)C1Cc2ccccc2CN1C(=O)OCc1ccccc1 (stereo unspecified)	6
103	Cc1ccc(Cl)cc1NC(=O)c1cc2ccccc2cc1O	4
104	CC(C)(C)c1ccc(S(=O)(=O)C(C)(C)C)cc1	19
105	O=C(O)c1ccc2nnn(O)c2c1	21
106	O=c1[nH]n2c(=O)c3c([nH]c2c1N=Nc1ccccc1)CCC3	13
107	Cc1ccsc1C(C(=O)NC(C)(C)C)N(C(=O)c1csnn1)c1ccccc1 (stereo unspecified)	14
108	O=C(NCCc1ccc(F)cc1)c1cccs1	18
109	CN(C)CCCn1c(=S)[nH]c2ccccc2c1=O	5
110	COC(=O)COc1ccc(NC(=O)Cn2nc(-c3ccccc3)c3ccccc3c2=O)cc1	11
111	NC(=O)CC(NC(=O)Cc1ccc(Br)cc1)c1ccc(N2CCN(c3ccccc3)CC2)c([N+](=O)[O-])c1 (stereo unspecified)	10
112	CC1CC(C)(C)NC(=S)O1 (stereo unspecified)	15&5
113	Cc1ccc(-n2nnnc2-c2ccccc2)cc1	8
114	COc1ccc(CC(=O)N2CCOCC2)cc1	19
115	Cc1sc2c(c1C)C(=O)/C(=C\Nc1ccccn1)S(=O)(=O)N2C	21
116	COc1cc(NC(=O)COC(=O)CNC(=O)c2cc(C)cc(C)c2)c(C)cc1[N+](=O)[O-]	-4
117	COc1cccc(C(Nc2ccccn2)c2oc(CO)cc(=O)c2O)c1 (stereo unspecified)	21
118	CSc1cccc(CN2CCCC(CNC(=O)c3ccc(F)cc3)C2)c1 (stereo unspecified)	18
119	O=C(COC(=O)C1CCCN1C(=O)C12CC3CC(CC(C3)C1)C2)c1ccc(Br)cc1 (stereo unspecified)	8
120	O=C(N/N=C/c1ccc(OCC2COCCO2)cc1)c1ccc(Br)cc1 (stereo unspecified)	14

The list goes on; the last five above are carried over.
entry	molecule	Calb biofilm kill
116	COc1cc(NC(=O)COC(=O)CNC(=O)c2cc(C)cc(C)c2)c(C)cc1[N+](=O)[O-]	-4
117	COc1cccc(C(Nc2ccccn2)c2oc(CO)cc(=O)c2O)c1 (stereo unspecified)	21
118	CSc1cccc(CN2CCCC(CNC(=O)c3ccc(F)cc3)C2)c1 (stereo unspecified)	18
119	O=C(COC(=O)C1CCCN1C(=O)C12CC3CC(CC(C3)C1)C2)c1ccc(Br)cc1 (stereo unspecified)	8
120	O=C(N/N=C/c1ccc(OCC2COCCO2)cc1)c1ccc(Br)cc1 (stereo unspecified)	14
121	CC(C)(C)C(=O)Nc1nc2c(c(=O)[nH]1)CCCC2	12
122	COCC(C)n1c(C)cc(C(=O)COC(=O)C2=NN(c3ccccc3)C(=O)CC2)c1C (stereo unspecified)	14
123	Cc1cc(C)cc(-n2c(N)c(C(=O)Nc3c(C)n(C)n(-c4ccccc4)c3=O)c3nc4ccccc4nc32)c1	11
124	CCC(C)n1c(=S)[nH]c2c(sc3ccc([N+](=O)[O-])cc32)c1=O (stereo unspecified)	18
125	Cc1ccc(NC(=O)Cc2n[nH]c(=S)n2C)cc1	28
126	O=C(O)CSc1ncnc2c1sc1nc(-c3ccccc3)c3c(c12)CCC3	7
127	Cc1ccccc1NC(=S)N1CCOCC1	6
128	CCCCn1c(NCc2ccc3c(c2)OCO3)nc2ccccc21	16
129	O=C(COC(=O)COc1ccc(Br)cc1)Nc1cccnc1Cl	1
130	CC(=O)Nc1ccc(NC(=O)CSc2nnc(-c3ccc(NS(C)(=O)=O)cc3)n2C)cc1C	6
131	Cc1cc(Br)ccc1SCC(=O)OCC(=O)Nc1ccccc1C#N	14
132	COc1ccc(O)c(/C=N/NC(=S)Nc2cccnc2)c1	9

Among those listed so far, 4 have a CF3 group:
entry	molecule	Calb biofilm kill
11	CCOC(=O)c1nc(C)sc1-c1ccnn1S(=O)(=O)c1ccccc1C(F)(F)F	8
60	O=C(CCc1nnc(Cc2ccc3c(c2)OCO3)o1)NC(c1ccccn1)C(F)(F)F (stereo unspecified)	4
67	O=C(Nc1ccc(C(F)(F)F)cc1)c1ccccc1Br	10
76	COc1ccc(-c2cc(C(F)(F)F)c(C#N)c(SCC(=O)O)n2)cc1OC	26

Screening data deposited in PubChem by PCMD.

This is a subset; count on the stated rates, not on these rows.
